# PAFAH1B3 inh: inhibitors of human PAFAH1B3; recombinant PAFAH1B3, FP-rhodamine probe, fluorescence polarization; hit rate 0.28% among 340,000; AID 492972; inhibition, % at 3.39 µM;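 active = inhibition above the screen-wide average of all tested compounds plus 3 SD, cut at about 25% in these data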;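 note: 0% = enzyme with DMSO only and 100% = wells lacking PAFAH1B3 protein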
# Target sequence (Q15102 whole entry, looked up): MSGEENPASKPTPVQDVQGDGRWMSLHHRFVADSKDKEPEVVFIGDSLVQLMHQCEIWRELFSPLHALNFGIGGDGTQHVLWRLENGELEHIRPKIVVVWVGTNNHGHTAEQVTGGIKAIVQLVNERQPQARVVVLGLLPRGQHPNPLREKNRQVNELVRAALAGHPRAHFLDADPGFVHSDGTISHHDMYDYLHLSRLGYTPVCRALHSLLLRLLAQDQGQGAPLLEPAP
# PAD4 FP inh: PAD4 (human) enzyme inhibition; Q9UM07; recombinant PAD4, RCA probe fluorescence polarization; inhibition, % at 6.36 µM; hit rate 0.41% among 330,000;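 active = percent inhibition above a cutoff equal to the mean of all tested compounds plus 3 SD, cut at about 15% in these data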;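 note: 0% = PAD4 with RCA probe and DMSO and 100% = probe without PAD4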
# Target sequence (Q9UM07 whole entry, looked up): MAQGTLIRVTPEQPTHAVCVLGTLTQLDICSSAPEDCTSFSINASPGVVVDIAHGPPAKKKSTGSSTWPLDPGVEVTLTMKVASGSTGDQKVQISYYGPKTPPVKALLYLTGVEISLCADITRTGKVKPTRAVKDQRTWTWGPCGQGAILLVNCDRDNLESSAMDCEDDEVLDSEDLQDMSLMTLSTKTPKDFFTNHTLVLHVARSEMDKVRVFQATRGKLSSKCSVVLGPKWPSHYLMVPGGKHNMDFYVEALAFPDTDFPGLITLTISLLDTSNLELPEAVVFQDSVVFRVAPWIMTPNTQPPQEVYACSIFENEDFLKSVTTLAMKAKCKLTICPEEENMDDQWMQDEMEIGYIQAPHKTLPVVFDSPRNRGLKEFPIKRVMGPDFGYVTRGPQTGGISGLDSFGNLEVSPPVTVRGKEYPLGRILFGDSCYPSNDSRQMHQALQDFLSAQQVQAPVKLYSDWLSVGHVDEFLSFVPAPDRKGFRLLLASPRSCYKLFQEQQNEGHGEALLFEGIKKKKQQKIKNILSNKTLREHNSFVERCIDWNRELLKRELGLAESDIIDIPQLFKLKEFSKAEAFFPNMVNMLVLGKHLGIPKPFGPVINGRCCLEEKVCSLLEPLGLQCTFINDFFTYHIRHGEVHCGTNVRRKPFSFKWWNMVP
# PAFAH2 FP inh: inhibitors of human PAFAH2. recombinant PAFAH2, FP-rhodamine activity probe, fluorescence polarization. inhibition, % at 3.39 µM. hit rate 0.99% among 340,000;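 active = inhibition above the mean over all tested compounds plus 3 SD, cut at about 30% in these data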;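 note: inhibitors block probe labeling of enzyme so polarization drops; 0% = enzyme with DMSO and 100% = wells lacking PAFAH2 protein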
# LYPLA1 inh: counter-screen for PME1 inhibitors: inhibitors of human LYPLA1; O75608; recombinant LYPLA1, FP-Rh probe fluorescence polarization; inhibition, % at 5.9 µM; hit rate 0.16% among 320,000; AID 2174;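 active = inhibition above the mean of all tested compounds plus 3 SD, set per campaign, cut at about 14% in these data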;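 note: inhibitors block serine hydrolase probe labeling of LYPLA1 so polarization falls; 0% = enzyme with DMSO and 100% = wells lacking LYPLA1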
# Fam108B counter: counter-screen for RBBP9 inhibitors: inhibitors of mouse Fam108B. recombinant Fam108B, FP-Rh probe fluorescence polarization. inhibition, % at 9.51 µM. hit rate 0.33% among 300,000. AID 1947;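 active = inhibition above the screen mean inhibition plus 3 SD, computed separately per campaign, cut at about 18% in these data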;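 note: inhibitors lower polarization as less probe binds the enzyme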
# * hit, by the source's call; · = not tested or not shown. An excerpt (hit frequency here may not be typical).
SMILES,PAFAH1B3 inh,PAD4 FP inh,PAFAH2 FP inh,LYPLA1 inh,Fam108B counter
Cc1ccccc1NS(=O)(=O)c1ccc(C(=O)NCC(C)(C)N2CCOCC2)cc1,3.5,3.8,2.2,-2.8,2.8
CCn1c(COc2ccc(C)cc2)nnc1SCC(=O)NNC(=O)c1ccc(OC)cc1,1.8,-2.7,-1.2,-1.2,-0.3
CCN1CCN(c2oc(/C=C/c3ccccc3)nc2C#N)CC1,-7.5,0.6,-3.9,3.9,2.9
COc1ccccc1C1/C(=C(/O)c2ccccc2)C(=O)C(=O)N1CC(C)O (configuration not stated),6.2,-6.6,0.3,-0.8,-1.7
CCCCCSc1nc(O)cc(=O)[nH]1,-2.2,-3.4,-4.1,-0.5,-0.1
COc1ccc(/C(C)=N/NC(=O)c2ccc(NS(=O)(=O)c3cccs3)cc2)cc1,6.8,-6.5,-7.2,-1.0,-1.3
COc1ccc2cc3cc(C(=O)NCCN4CCc5ccccc5C4)sc3nc2c1,8.1,2.2,0.0,-12.2,-2.3
COc1ccc(/C=N/NC(=O)c2cccc(C(=O)N/N=C/c3ccc(OC)cc3)n2)cc1,5.7,-0.4,-32.1,-32.1,11.9
CCOc1ccc(S(=O)(=O)N2CCCCC2)cc1NC(=O)C1CCC1,5.5,-3.8,-0.3,5.5,-0.9
NS(=O)(=O)c1ccc(NC(=O)COC(=O)C2(c3ccccc3F)CCCC2)cc1,4.7,-5.8,-0.6,-7.1,-4.1
COc1ccccc1-n1c(-c2cc(-c3ccc(F)cc3)n[nH]2)n[nH]c1=S,-4.8,2.0,2.4,-2.5,1.5
COc1ccc(C2NC(c3ccc(OC)cc3OC)C(C)C(=O)C2C)c(OC)c1 (configuration not stated),1.4,-2.9,1.9,5.3,-6.2
Cc1ccc(OCCCC(=O)Nc2ccc(S(N)(=O)=O)cc2)cc1,5.6,-7.4,-0.3,-0.3,-2.1
COc1cc2c(cc1OC)CN(C(=O)c1ccncc1)CC2,1.2,-5.6,0.4,-1.3,-8.2
Cc1nn(-c2ccc(Cl)cc2)c(Cl)c1/C=N/NC(=O)c1ccc(NS(=O)(=O)c2cccs2)cc1,-0.4,-8.2,-18.4,-19.1,6.1
Fc1ccc(-c2csc(-c3cccnc3)n2)cc1F,-0.1,-9.3,0.2,1.6,2.3
Cc1ccc(NC(=O)c2ccc(N/N=C/c3cccc(O)c3)c([N+](=O)[O-])c2)cc1,-14.7,-4.4,-23.5,-8.9,-5.5
Cc1ccc(SCC(=O)Nc2ccc(S(N)(=O)=O)cc2)cc1,0.7,1.4,0.8,-0.2,-4.5
CC(=O)N/C(=C\c1ccccc1)C(=O)OC(C)C(=O)Nc1ccccc1F (configuration not stated),11.1,0.7,0.6,-2.2,·
Cc1cc2c(cc1S(=O)(=O)N(C)c1ccccc1)NC(=O)CO2,0.6,-3.6,4.1,-0.6,7.7
CC(=O)c1cccc(S(=O)(=O)NC2CCSc3ccccc32)c1 (configuration not stated),2.5,-1.4,1.1,-3.7,4.2
COc1ccccc1NC(=O)c1cc(S(=O)(=O)N2CCCCCC2)ccc1F,3.0,1.3,6.2,-4.3,-4.7
Cc1nc2cc(F)ccc2n1C1CCN(S(=O)(=O)c2ccccc2)CC1,4.9,-6.6,-4.8,-1.4,-0.1
Cc1ccc(NS(=O)(=O)c2cc(OCC(N)=O)c(C)cc2Cl)cc1C,2.1,-0.3,-1.1,-2.9,1.4
O=C(Nc1ccccc1Cl)c1ccccc1S(=O)(=O)c1ccccc1[N+](=O)[O-],1.7,2.1,-4.3,1.8,-1.4
SMILES,PAFAH1B3 inh,PAD4 FP inh,PAFAH2 FP inh,LYPLA1 inh,Fam108B counter
CC1(C)Cc2ccccc2C(/C(C#N)=N/O)=N1,8.9,-0.5,3.2,-4.0,-5.6
O=C(N/N=C/c1ccc([N+](=O)[O-])cc1)c1ccc(NS(=O)(=O)c2cccs2)cc1,5.5,-2.3,-4.4,1.4,·
Cc1cccc(/C=C2/Sc3ccc(C(=O)N4CCOCC4)cc3NC2=O)c1,5.3,-5.9,-9.2,0.8,-1.6
COc1cc(C(=O)OC2CCCCC2=O)cc(OC)c1C (configuration not stated),4.9,-1.7,-3.4,1.9,1.4
Cc1ccc(O)c(NC(=S)NC(=O)c2ccccc2Cl)c1,1.8,-3.9,1.2,-4.1,5.7
Cc1cc(N/N=C/c2ccccc2[N+](=O)[O-])nc(-n2nc(C)cc2C)n1,-1.3,-6.4,-1.1,1.3,1.7
CC1(C)NC(=O)N(CNc2cc(Cl)ccc2Cl)C1=O,5.0,0.1,-2.2,1.4,-3.3
COc1ccc(S(=O)(=O)N2CCCCCC2)cc1C(=O)Nc1ccc(C)cn1,-2.5,3.2,4.7,-3.0,1.4
COC(=O)c1ccc(C2NC(=S)N(c3ccccc3)C(C)=C2C(=O)Nc2ccccc2OC)cc1 (configuration not stated),7.9,-0.4,-8.8,-5.0,-2.2
O=C(O)c1nccnc1C(=O)Nc1ccc(Cl)cc1Cl,-1.7,-0.2,-4.3,0.1,5.2
CSc1cccc(N2CC(C(=O)NCCN3C(=O)S/C(=C\c4cccnc4)C3=O)CC2=O)c1 (configuration not stated),4.9,-0.4,2.5,-2.3,-1.4
CS(=O)(=O)c1ccc(-c2csc(-c3cccnc3)n2)cc1,6.4,6.5,4.6,-3.4,-6.4
Cc1nn2c(-c3ccccc3)ccnc2c1-c1ccccc1,8.7,-2.4,4.8,0.7,-0.2
O=C(Nc1cccc(-c2nc3ccccc3o2)c1)c1cccnc1,2.6,-2.8,-4.4,-5.1,-3.0
Cc1ccc(CNCc2cc3c(C(C)(C)C)nn(-c4ccccc4)c3[nH]c2=O)cc1,7.2,-1.4,-4.3,-1.1,1.5
N#CC(c1ccccc1F)(c1ncc(C(F)(F)F)cc1Cl)N1CCOCC1 (configuration not stated),4.3,6.2,4.8,0.8,-0.9
Cc1ccc(-c2nn(-c3ccccc3)c3[nH]c(=O)c(CNCc4ccccc4)cc23)cc1,6.9,0.0,0.1,-4.2,7.7
CCOc1ncccc1C(=O)Nc1cc(S(=O)(=O)N2CCCCC2)ccc1OC,-2.4,1.9,6.8,-0.2,·
COc1ccccc1OCc1nnc(SCC(=O)Nc2ccc(C)cc2)n1C,1.5,-0.1,-3.4,2.3,3.6
Cc1ccc(S(=O)(=O)Nc2nc3ccccc3nc2NCc2ccco2)cc1C,6.8,4.2,22.1,-0.6,4.0
CS(=O)(=O)c1ccc(C(=O)OCC(=O)NC(=O)Cc2ccccc2)cc1,6.5,-3.0,7.3,4.2,2.2
CC(C)CC(C(=O)N1CCOCC1)N1Cc2ccccc2C1=O (configuration not stated),1.9,-3.8,-7.3,-4.3,-5.6
COc1ccc(-c2cc(-c3n[nH]c(=S)n3-c3cc(OC)ccc3OC)[nH]n2)cc1,-2.2,5.8,1.9,-5.2,2.2
O=C(NCc1ccc2c(c1)OCO2)C1CC(=O)N(CCc2ccc(F)cc2)C1 (configuration not stated),4.8,-3.5,4.6,-0.5,2.4
CCN(CC)CCOCCOc1ccc(Cl)c2ccccc12,-5.3,-3.6,7.0,-7.0,-6.8

# In a second layout: entries from further up
Compound | PAFAH1B3 inh | PAD4 FP inh | PAFAH2 FP inh | LYPLA1 inh | Fam108B counter
COC(=O)c1ccc(C2NC(=S)N(c3ccccc3)C(C)=C2C(=O)Nc2ccccc2OC)cc1 (configuration not stated) | 7.9 | -0.4 | -8.8 | -5.0 | -2.2
O=C(O)c1nccnc1C(=O)Nc1ccc(Cl)cc1Cl | -1.7 | -0.2 | -4.3 | 0.1 | 5.2
CSc1cccc(N2CC(C(=O)NCCN3C(=O)S/C(=C\c4cccnc4)C3=O)CC2=O)c1 (configuration not stated) | 4.9 | -0.4 | 2.5 | -2.3 | -1.4
CS(=O)(=O)c1ccc(-c2csc(-c3cccnc3)n2)cc1 | 6.4 | 6.5 | 4.6 | -3.4 | -6.4
Cc1nn2c(-c3ccccc3)ccnc2c1-c1ccccc1 | 8.7 | -2.4 | 4.8 | 0.7 | -0.2
O=C(Nc1cccc(-c2nc3ccccc3o2)c1)c1cccnc1 | 2.6 | -2.8 | -4.4 | -5.1 | -3.0
Cc1ccc(CNCc2cc3c(C(C)(C)C)nn(-c4ccccc4)c3[nH]c2=O)cc1 | 7.2 | -1.4 | -4.3 | -1.1 | 1.5
N#CC(c1ccccc1F)(c1ncc(C(F)(F)F)cc1Cl)N1CCOCC1 (configuration not stated) | 4.3 | 6.2 | 4.8 | 0.8 | -0.9
Cc1ccc(-c2nn(-c3ccccc3)c3[nH]c(=O)c(CNCc4ccccc4)cc23)cc1 | 6.9 | 0.0 | 0.1 | -4.2 | 7.7
CCOc1ncccc1C(=O)Nc1cc(S(=O)(=O)N2CCCCC2)ccc1OC | -2.4 | 1.9 | 6.8 | -0.2 | ·
COc1ccccc1OCc1nnc(SCC(=O)Nc2ccc(C)cc2)n1C | 1.5 | -0.1 | -3.4 | 2.3 | 3.6
Cc1ccc(S(=O)(=O)Nc2nc3ccccc3nc2NCc2ccco2)cc1C | 6.8 | 4.2 | 22.1 | -0.6 | 4.0
CS(=O)(=O)c1ccc(C(=O)OCC(=O)NC(=O)Cc2ccccc2)cc1 | 6.5 | -3.0 | 7.3 | 4.2 | 2.2
CC(C)CC(C(=O)N1CCOCC1)N1Cc2ccccc2C1=O (configuration not stated) | 1.9 | -3.8 | -7.3 | -4.3 | -5.6
COc1ccc(-c2cc(-c3n[nH]c(=S)n3-c3cc(OC)ccc3OC)[nH]n2)cc1 | -2.2 | 5.8 | 1.9 | -5.2 | 2.2
O=C(NCc1ccc2c(c1)OCO2)C1CC(=O)N(CCc2ccc(F)cc2)C1 (configuration not stated) | 4.8 | -3.5 | 4.6 | -0.5 | 2.4
CCN(CC)CCOCCOc1ccc(Cl)c2ccccc12 | -5.3 | -3.6 | 7.0 | -7.0 | -6.8

# The results go on.
SMILES,PAFAH1B3 inh,PAD4 FP inh,PAFAH2 FP inh,LYPLA1 inh,Fam108B counter
COc1ccc(S(=O)(=O)Nc2c(C(=O)O)[nH]c3ccc(OC)cc23)c(OC)c1,6.7,-6.9,17.8,5.8,2.6
Cc1ccc(CCN2CC(C(=O)NCCCN(C)Cc3ccccc3)CC2=O)cc1 (configuration not stated),4.3,-2.7,-1.2,-3.7,2.0
O=C(Nc1cccc(C(F)(F)F)c1)C1CC(=O)N(CCc2ccccc2)C1 (configuration not stated),7.7,2.4,1.0,0.1,·
O=C(O)c1cccc(-n2cccc2/C=C2/NC(=O)N(c3cccc(Cl)c3)C2=O)c1,6.1,-11.7,29.0,2.5,6.6
COC(=O)C1=NN(c2ccccc2)C2C(=O)N(c3ccccc3OC)C(=O)C12 (configuration not stated),9.6,6.9,-8.8,-5.2,0.8
Cc1ccccc1NS(=O)(=O)c1ccc(C(=O)NCC(c2ccccc2)N(C)C)cc1 (configuration not stated),5.5,-4.7,9.0,-0.1,-4.7
Nc1ccc(C(=O)Oc2ccc([N+](=O)[O-])cc2)cc1,-3.7,-3.1,31.7*,0.2,1.5
CCn1c(CNC(=O)COc2ccc(C(C)C)cc2)nnc1SCC(=O)Nc1ccccc1,4.3,2.8,2.5,-1.9,-1.7
Cc1cccc(C)c1Nc1nnc(SCC(=O)NC(=O)c2cccn2C)s1,-4.5,0.2,4.5,0.1,1.9
COc1ccc(Cl)cc1NS(=O)(=O)c1cc(Cl)ccc1OC,-5.6,-6.8,-0.9,2.9,-2.0
O=S(=O)(Nc1ccccc1)c1ccc(-c2cnc(C3CC3)o2)cc1,3.6,-4.3,4.9,-4.7,0.0
COc1ccccc1OCC(=O)Nc1ccc(S(=O)(=O)N2CCCCCC2)cc1,-0.6,4.3,-2.0,-8.8,-9.1
CCOC(=O)/C(=N\O)C1=NC(C)(C)Cc2ccccc21,-2.1,-0.6,6.8,-5.8,3.2
CCOC(=O)c1ccc(-n2cccc2/C=C2\NC(=O)NC2=O)cc1,-4.2,-5.5,1.1,1.5,·
c1ccc(-c2nc(CSc3n[nH]c(-c4cccs4)n3)cs2)cc1,5.9,0.0,0.7,-3.2,1.0
CCOC(=O)c1c(NC2OC(=O)c3c2ccc(OC)c3OC)sc(C(=O)OC(C)(C)C)c1C (configuration not stated),7.1,-0.3,5.8,-2.0,-0.2
CN(C)c1oc(/C=C/c2ccccc2)nc1C#N,-3.4,5.1,2.5,-2.4,4.7
COc1cccc(Nc2nc3ccccc3nc2NS(=O)(=O)c2ccc(NC(C)=O)cc2)c1,20.7,-0.8,14.2,-2.4,9.6
